KCNQ2 pot: potentiators of rat KCNQ2 potassium channel | O88943 | CHO-K1 KCNQ2, FluxOR thallium flux fluorescence; active compounds read high | B-score at 10 µM | 310,000 compounds, 0.54% hits;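 active means fluorescence ratio B-score at least 3 SD of library B-scores, with initial fluorescence B-score within 3 SD, cut at about 5.3 in these data; same plate scores as AID 2156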;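 further: B-score of peak minus minimum over baseline fluorescence ratio after K+ and Tl+ stimulus; positive B-score means potentiation of KCNQ2 with more thallium influx and brighter signal; only the inactives scoring about 0 or higher are listed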
Target sequence (O88943 whole entry, looked up): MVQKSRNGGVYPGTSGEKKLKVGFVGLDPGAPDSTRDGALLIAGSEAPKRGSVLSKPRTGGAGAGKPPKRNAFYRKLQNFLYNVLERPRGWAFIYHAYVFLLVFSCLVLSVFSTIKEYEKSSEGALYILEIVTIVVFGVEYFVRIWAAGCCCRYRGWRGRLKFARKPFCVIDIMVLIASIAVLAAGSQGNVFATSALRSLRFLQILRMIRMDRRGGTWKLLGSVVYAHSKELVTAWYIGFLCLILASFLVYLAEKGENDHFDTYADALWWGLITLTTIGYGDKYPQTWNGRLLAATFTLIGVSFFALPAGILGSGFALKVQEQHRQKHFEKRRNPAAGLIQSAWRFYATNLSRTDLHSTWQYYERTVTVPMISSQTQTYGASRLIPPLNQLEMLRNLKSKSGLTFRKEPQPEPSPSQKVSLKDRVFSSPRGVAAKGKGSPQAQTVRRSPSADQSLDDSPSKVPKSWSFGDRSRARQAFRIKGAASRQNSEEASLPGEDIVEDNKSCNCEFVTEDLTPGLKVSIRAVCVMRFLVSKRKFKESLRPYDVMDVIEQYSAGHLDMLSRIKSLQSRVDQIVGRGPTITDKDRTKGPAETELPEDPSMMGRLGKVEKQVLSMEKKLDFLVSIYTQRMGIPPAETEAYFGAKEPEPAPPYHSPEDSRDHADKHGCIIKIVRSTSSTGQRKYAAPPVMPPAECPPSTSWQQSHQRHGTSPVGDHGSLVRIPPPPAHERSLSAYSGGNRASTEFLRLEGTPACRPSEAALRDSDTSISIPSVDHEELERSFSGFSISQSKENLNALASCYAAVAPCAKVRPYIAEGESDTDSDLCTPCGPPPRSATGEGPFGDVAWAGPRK
KCNQ2 pot baseline: recorded beside KCNQ2 pot, whose call it bears; B-score; compound at 10 µM; measured here: initial fluorescence intensity artifact check;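 brightness before thallium and not channel activity; 0 = typical well and far values either way flag optical interference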
The depositor's hits bear a star.

Screens in order – KCNQ2 pot	KCNQ2 pot baseline
Cc1csc(NC(=O)CCCc2cccs2)n1
→ 2.2	0.92
O=C(NC(Cc1c[nH]c2ccccc12)C(=O)O)c1ccc(Br)cc1 (stereo not given)
→ 0.78	-0.17
O=C1C(=O)N(Cc2ccco2)C(c2cccc(Cl)c2)/C1=C(\O)c1ccc2c(c1)OCCO2 (stereo not given)
→ 0.17	-0.06
O=C(NCCCN1CCOCC1)NC1CCCCC1
→ 2.3	-0.9
CC(C)(C)c1nnc(NC(=O)CCS(=O)(=O)Cc2ccccc2)s1
→ 0.44	0.98
Cc1cc(S(=O)(=O)Nc2ccc(F)cc2)c(C)s1
→ 1.9	-0.02
CC(C)COC(=O)CCNc1n[nH]c(=O)[nH]c1=O
→ 0.6	0.01
COc1ccccc1NC(=O)CSc1nncn1-c1cccnc1
→ 0.46	-1.2
CCN(CC)S(=O)(=O)c1cccc(NC(=O)C2CC(=O)N(c3ccc4c(c3)OCCO4)C2)c1 (stereo not given)
→ 0.08	0.16
O=C(NC(=S)N1CCCC1)c1ccc(Cl)cc1Cl
→ 1.6	0.29

(listing goes on)
Screens in order – KCNQ2 pot	KCNQ2 pot baseline
COC(=O)C1=C(C)NC(=O)/C1=C\c1ccco1
→ 0.54	-0.02
Cc1ccc2cc(CCNC(=O)c3ccc(S(=O)(=O)N4CCCCC4)cc3)c(=O)[nH]c2c1
→ 0.35	-0.01
COc1ccc(CNC(=O)CN(C)S(=O)(=O)c2ccc3c(c2)c(=O)n(C)c(=O)n3C)cc1
→ 0.66	0.06
Cc1nc2scc(C)n2c(=O)c1S(=O)(=O)N1CCN(c2ccccc2)CC1
→ 1.9	-0.14
COc1ccccc1CCc1nnc(CCC(=O)N(C)Cc2cccc3cnccc23)o1
→ 0.12	-0.9
O=c1c(Cc2ccc(F)cc2)c(O)ccn1CCc1ccccn1
→ 0.81	0.24
O=C(COC(=O)c1ccccc1Cl)Nc1nccs1
→ 0.74	-2.4
Cc1cc(C)n(CC(=O)NNC(=O)CCNC(=O)c2ccccc2Cl)n1
→ 0.22	0.19
Cc1ccccc1CSCCNS(C)(=O)=O
→ 0.95	1.4
CCn1c2ccccc2c2cc(Nc3cc(C)nc4ncnn34)ccc21
→ 0.69	-1.6

Following part
Screens in order – KCNQ2 pot	KCNQ2 pot baseline
O=C(CC1NCCc2ccccc21)Nc1cccc(Cl)c1 (stereo not given)
→ 2.2	-1.4
O=C(Nc1ccc(-c2nc3c(ccc4ccccc43)o2)cc1)c1ccco1
→ 0.05	0.58
COc1ccc(S(=O)(=O)N2CCOCC2)cc1NC(=O)CSc1nnc2ccccn12
→ 0.73	-0.01
COC(=O)c1cc2ccsc2n1CC(=O)Nc1cc(C)cc(C)c1
→ 0.12	-1.9
Cc1cc(CN(C)C(=O)CC2C(=O)NCCN2Cc2ccc(-c3ccccc3)cc2)on1 (stereo not given)
→ 0.33	2.6
COc1ccc(CCNC(=O)CN(c2cccc([N+](=O)[O-])c2)S(C)(=O)=O)cc1
→ 0.89	-1.3
COc1ccc(/C=N/NC(=O)c2cc(-c3ccccc3OC)nc3ccccc23)cc1COC(C)=O
→ 0.7	1.1
O=C(CCC1(C(=O)O)CCC(=O)NC1)NCc1ccccc1 (stereo not given)
→ 0.21	2.5
CN(C)C(/C=C/Nc1ccccc1F)=C(C#N)C#N
→ 0.61	-1.1
Cc1ccnc(NC(=O)CCC(=O)N(CC(=O)NC(C)(C)C)C2CCCC2)c1
→ 0.47	-1

Continuation:
Screens in order – KCNQ2 pot	KCNQ2 pot baseline
CCCC(c1nnnn1C(C)(C)CC)N1CCN(C(=O)c2ccco2)CC1 (stereo not given)
→ 0.93	-0.19
CSCCCNC(=S)N1CCc2ccccc2C1
→ 1	0.55
Cn1nnc2ccccc2c1=O
→ 1.6	1.5
O=C(O)C1=C[C@H](c2ccc(C(F)(F)F)cc2)C[C@H](OCCCCO)O1
→ 0.84	-1.4
O=C(NC(=S)NC1CC1)c1cccnc1
→ 0.91	0.01
COc1cc(/C=N/NC(=O)C(C)n2nnc3ccccc32)ccc1O (stereo not given)
→ 0.18	0.3
COc1ccccc1NC(=O)Nc1cccnc1
→ 0.55	-0.32
COc1ccc(N2CC(C(=O)Nc3nnc(SCC(=O)NCC4CCCO4)s3)CC2=O)cc1 (stereo not given)
→ 0.97	-1
Cc1ccc(NC(=O)c2c(C)noc2-c2snnc2C)cc1
→ 0.41	1
Cc1cc(NC(=O)Nc2ccc(Cl)c(Cl)c2)no1
→ 0.24	-0.31

Record cards, from the list above. Order of values: KCNQ2 pot | KCNQ2 pot baseline
O=C(O)C1=C[C@H](c2ccc(C(F)(F)F)cc2)C[C@H](OCCCCO)O1 across the screens: 0.84 | -1.4
Cc1cc(NC(=O)Nc2ccc(Cl)c(Cl)c2)no1 across the screens: 0.24 | -0.31
Cn1nnc2ccccc2c1=O across the screens: 1.6 | 1.5

Laid out differently: two of the compounds above
O=C(O)C1=C[C@H](c2ccc(C(F)(F)F)cc2)C[C@H](OCCCCO)O1
  KCNQ2 pot = 0.84 | KCNQ2 pot baseline = -1.4
O=C(NC(=S)NC1CC1)c1cccnc1
  KCNQ2 pot = 0.91 | KCNQ2 pot baseline = 0.01

Next results.
Screens in order – KCNQ2 pot	KCNQ2 pot baseline
Cc1oc(-c2cccc(Cl)c2)nc1CSCC(=O)O
→ 2.1	-0.76
O=C(CCCOc1ccc(Cl)cc1Cl)NNC(=O)c1ccc(NC(=O)c2ccccc2)cc1
→ 1.9	0.17
COc1ccc(OC)c(C(=O)CN2C(=O)NC(C)(c3ccccc3)C2=O)c1 (stereo not given)
→ 0.8	-0.14
COc1ccc(S(=O)(=O)NCc2cccnc2)cc1Br
→ 2.9	-0.79
O=C(c1cc(S(=O)(=O)N2CCOCC2)ccc1Cl)N1CCOCC1
→ 0.25	-0.61
CCOC(=O)c1c(C)c(C(=O)Nc2ccc(N(C)C)cc2)c(C)n1CC
→ 0.8	0.5
CN1C(=O)CC(C(=O)O)SC1=Nc1cc(Cl)cc(Cl)c1 (stereo not given)
→ 0.7	-1.7
Cc1c(NC(=O)c2cc3c(s2)CCCC3)c(=O)n(-c2ccccc2)n1C
→ 1	0.43
COc1ccc(/C=N/Nc2nc(N3CCCC3)nc(N3CCCC3)n2)c(OC)c1OC
→ 1.3	0.01
O=C(Cc1cccs1)N/N=C/C(Cl)=C/c1ccccc1
→ 1.2	-0.02

(continued)
Screens in order – KCNQ2 pot	KCNQ2 pot baseline
C/C=C/C(=O)OCC(=O)Nc1nc2ccc(C)cc2s1
→ 0.47	1.1
Cc1ccc(CNC(N)=S)cc1
→ 0.67	-0.46
CCc1ccc(N2C(=O)CN(Cc3cccs3)C2=S)cc1
→ 1.6	-0.85
Cc1cccn2c(=O)c3cc(C(=O)N4CCN(C(=O)c5ccco5)CC4)n(C)c3nc12
→ 0.31	-0.01
CCc1cc(CNC(=O)c2ccc3nc(Cc4ccc(OC)c(OC)c4)oc3c2)on1
→ 1.2	-0.73
COc1ccccc1C(=O)O/N=C(/C)c1ccc(N2C(=O)C3CCCCC3C2=O)cc1 (stereo not given)
→ 1.4	-0.06
Cc1occc1C(=O)NNC(=O)Cc1ccccc1
→ 1.1	0.02
CCOC(=O)c1ccccc1NC(=O)CSc1nnc(C(C)C)n1CC
→ 0.37	-0.75
O=C(NCCN1CCN(C(=O)c2cccc(Br)c2)CC1)C(=O)NCc1ccccc1
→ 0.4	0.74
CC(C)NC(=O)c1[nH]nc2c1CCc1ccccc1-2
→ 0.39	-0.51

Continuation.
molecule,KCNQ2 pot,KCNQ2 pot baseline
COc1ccc2cc3cc(C(=O)N4CCN(c5ccccc5)CC4)oc3nc2c1,1.5,1.3
O=C(Cn1c(=O)sc2ccccc21)Nc1ccc(S(=O)(=O)N2CCCC2)cc1,0.86,-1.4
O=C(Nc1ccc2[nH]ccc2c1)c1ccccc1,2,-0.03
COc1cccc(-c2nc(-c3ccccc3)nc(N3CCN(C)CC3)c2C#N)c1,0.25,-0.52
CSc1ncc(Cl)c(C(=O)NCc2ccc3c(c2)OCO3)n1,0.26,0.14
C/C=C/C(=O)Nc1cccc(C2=NOC3(C2)C[C@H](C(N)=O)N(C(=O)c2ccccc2C(=O)c2ccccc2)C3)c1 (stereo not given in full),1.1,-1.3
O=C(Nc1ccc2c(c1)OCO2)c1ccc2c(c1)S(=O)(=O)c1ccccc1C2=O,0.01,0.72
CC(=O)C1C(c2ccc(Cl)cc2)c2c(noc2C)CC1(C)O (stereo not given),2.1,0.76

Copied from the list.
KCNQ2 pot baseline, CC(=O)C1C(c2ccc(Cl)cc2)c2c(noc2C)CC1(C)O (stereo not given) reads 0.76
KCNQ2 pot, O=C(Nc1ccc2[nH]ccc2c1)c1ccccc1 reads 2
KCNQ2 pot baseline, O=C(Nc1ccc2c(c1)OCO2)c1ccc2c(c1)S(=O)(=O)c1ccccc1C2=O reads 0.72
KCNQ2 pot, CSc1ncc(Cl)c(C(=O)NCc2ccc3c(c2)OCO3)n1 reads 0.26
KCNQ2 pot, COc1ccc2cc3cc(C(=O)N4CCN(c5ccccc5)CC4)oc3nc2c1 reads 1.5
KCNQ2 pot baseline, C/C=C/C(=O)Nc1cccc(C2=NOC3(C2)C[C@H](C(N)=O)N(C(=O)c2ccccc2C(=O)c2ccccc2)C3)c1 (stereo not given in full) reads -1.3
KCNQ2 pot baseline, COc1cccc(-c2nc(-c3ccccc3)nc(N3CCN(C)CC3)c2C#N)c1 reads -0.52

The listing continues.
molecule,KCNQ2 pot,KCNQ2 pot baseline
CCOC(=O)c1sc2ncnc(NCC(c3cccs3)N(C)C)c2c1C (stereo not given),7.7*,0.07*
O=c1cccc(-c2ccc(Br)cc2)o1,1.8,-0.98
O=C(CSC1=NCCN1)NC12CC3CC(CC(C3)C1)C2,2.4,-0.05
COc1ccc(S(=O)(=O)NCc2cc(=O)n(C)c(=O)n2C)cc1F,0.01,-0.61
COC(=O)c1ccc(S(=O)(=O)N(Cc2ccccc2)Cc2ccccc2)n1C,0.98,0.24
COc1cc(OC)c(OC)cc1/C=N/NC(=O)CSc1ccccc1F,1.1,-0.83
CN(CC(=O)Nc1c(Cl)cccc1Cl)C(=O)c1cc(S(=O)(=O)N(C)C)ccc1N1CCCC1,0.66,0
Cc1ccc2c(c1)N(CC(=O)NCCCN1CCOCC1)C(=O)c1cccnc1O2,0.13,0.24

Other entries follow:
molecule,KCNQ2 pot,KCNQ2 pot baseline
O=C(OC1CCCCC1=O)c1cc(Cl)ccc1[N+](=O)[O-] (stereo not given),1.2,0.46
CC1(C)CC(=O)C(C=Nc2ccc3[nH]ncc3c2)=C(O)C1,1.2,-1.9
O=C(Cc1ccccc1)N/N=C/c1ccccc1OCc1ccc(Cl)cc1,2.7,-1.4
Cc1cccc([C@@H]2[C@@H]3C(=O)N(Cc4ccccc4)C(=O)[C@@H]3[C@]3(Cc4ccc(Cl)cc4)C(=O)N(c4ccc(Br)cc4)C(=O)N23)c1,1.7,1.5
COC(=O)CCCC1=CC2=CC(=O)C(C)(OC(=O)c3cccs3)C(=O)C2=CN1CC1CC1 (stereo not given),1.5,-1.3
CC(C)C[C@H](NC(=O)Nc1cccc(C(F)(F)F)c1)C(=O)O,1.7,-0.11
Cc1nc(N2CCN(C(=O)c3ccco3)CC2)c(C#N)c2c1CCCC2,1.8,1.4
Cc1c(NC(=O)c2c(N)n(-c3ccccc3)c3nc4ccccc4nc23)c(=O)n(-c2ccccc2)n1C,1.1,-1.6

The list goes on.
molecule,KCNQ2 pot,KCNQ2 pot baseline
O=C(CN1CCc2ccccc21)NC(=O)NCc1ccccc1,0.65,-0.7
CCOC(=O)CNc1nc(C#N)nc(N2CCOCC2)n1,0.26,0.51
CCc1sc(C(=O)Nc2ccsc2C(=O)OC)cc1Br,0.23,-2
O=c1[nH]c(CN2CCOCC2)nc2scc(-c3ccccc3)c12,0.13,-0.06
CCNC(=O)NC(=O)COC(=O)c1cccc(NS(=O)(=O)/C=C/c2ccccc2)c1,1.2,-1.5
CCc1ccccc1NC(=O)c1noc(C(C)C)c1[N+](=O)[O-],0.77,-0.23
CSc1sc(C(=O)O)c2c1C(=O)CC(C)(C)C2,1.2,0.61
N/C(CN1CCCC1=O)=N\O,0.84,0.64

(next part)
molecule,KCNQ2 pot,KCNQ2 pot baseline
O=C(COc1ccccc1)Nc1cccc(-c2cn3cccnc3n2)c1,1.4,-1.4
O=C(NCCO)c1cc2c([nH]c3ccccc32)c(-c2ccccc2)n1,1.2,2.1
Cc1ccc(Nc2nnc(SCC(=O)Nc3cccnc3Cl)s2)cc1C,0.03,-0.09
CC(C)N1CCN(Cc2ccncc2)CC1CCO (stereo not given),0.33,-0.48
O=C(O)CCC(=O)c1ccc2ccc3cccc4ccc1c2c34,0.69,-0.02
CC1(OC(=O)C2CCCC2)C(=O)C=C2C=C(c3ccc(C#N)cc3)OC=C2C1=O (stereo not given),0.23,0.14
COCCCNC(=S)NNC(=S)NCCCOC,1,0.13
CCc1ccc(N(C(=O)c2snc(C(N)=O)c2N)C(C(=O)NCC2CCCO2)c2ccco2)cc1 (stereo not given),0.55,-2.6

Further entries
molecule,KCNQ2 pot,KCNQ2 pot baseline
Cc1cc(C)c(NC(=O)CS(=O)CC(=O)N2CCN(c3ccc(F)cc3)CC2)c(C)c1 (stereo not given),0.93,-0.82
COc1ccccc1NC(=O)Nc1ncccc1C,2.2,-0.07
COc1ccc(N(CC(=O)Nc2ccc3c(c2)OCO3)S(=O)(=O)c2ccccc2)c(OC)c1,0.39,-0.27
Cc1ccc(Nc2nc(NCCCN3CCOCC3)nc(N)c2[N+](=O)[O-])cc1C,0.1,0.63
O=C(NC1CCS(=O)(=O)C1)N1CCCCC1 (stereo not given),1.1,-0.57
O=S(=O)(Cc1ccccc1)c1ccccc1-c1nnc(-c2ccccc2)o1,0.94,-0.02
CCCCN(C(=O)NC(=O)Nc1ccccc1C)S(C)(=O)=O,1.6,-0.39
Cc1ccc2cc(C)c(SCC(=O)Nc3cc(C)on3)nc2c1,0.15,-0.69
CCCCOc1ccccc1Cn1c(=O)oc2ccccc21,0.4,0.1
COc1ccc(NC(=O)Cn2nc(C)c([N+](=O)[O-])c2C)cn1,0.15,-0.64

Compound activity as filed in PubChem BioAssay.

An excerpt (hit frequency here may not be typical).
